Compound activity from PubChem.
Bfl-1 A1 inh: inhibitors of the anti-apoptotic protein A1, read as caspase activation | MEF A1-2A-BIM cells, Caspase-Glo 3/7 luminescence, 3 h; percent of clofoctol response, vehicle zero | caspase activation, % (no concentration beside the values) | 330,000 compounds, 0.066% hits | AID 2462;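 active = over half of replicate activation scores above 10%, or exactly half above 10 with the replicate mean above 10; inconclusive = replicate mean below 10 yet half the replicates above 10; inactive = over half of replicates below 10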;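 note: wells of about 30 µL received 50 nL stock; many hits fall short of the cut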
RanGTP-Impb inh: inhibitors of RanGTP-importin-beta interaction, primary screen, biochemical, FRET, CFP-Ran, YFP-importin-beta, homogeneous; cell-free CFP-Ran/YFP-importin-beta FRET ratio; inhibition, % (test concentration not listed); 300,000 compounds, 1.1% hits;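 active = most replicates above 15%; inconclusive = exactly half above 15%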;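 note: 0% = DMSO wells and 100% = Ran loaded with GDP instead of GTP; wells of about 40 µL received 100 nL stock; the first replicate is given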
Calb FLC: affects C. albicans growth with fluconazole. growth inhibition, % (concentration not given with the values). C. albicans CaCi-2 (fluconazole-resistant clinical isolate) + fluconazole, Alamar Blue growth, 48 h. AID 1979. 300,000 compounds, 0.57% hits;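 active = most replicates above 75%; inconclusive = exactly half above 75%; inactive = most below 75%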;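 note: all wells also contain fluconazole at 8 µg/ml as a sub-toxic cotreatment; 0% = median of DMSO wells and 100% = median of geldanamycin control wells; wells of about 8 µL received 7.5 nL stock; the first replicate is given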
T cruzi inh: blocks replication of Trypanosoma cruzi | T. cruzi beta-gal in NIH3T3, luminescence, 90 h | inhibition, % (concentration not given with the values) | 300,000 compounds, 1.4% hits;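 active = mean inhibition across valid replicates above about 55%, limit read from the data; inconclusive = mean below that limit but half or more replicates reach it; inactive = mean below it, under half of replicates reach it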;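 note: signal also drops with host cell toxicity which is not excluded here; 0% = plate median of DMSO wells and 100% = zero luminescence signal; higher percent means less beta-gal luminescence so fewer parasites; stock transfer was 50 nL into about 50 µL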
Vif A3G: HIV-1 Vif–A3G interaction blockers – biochemical, TR-FRET, GST-Vif 1-94, biotin-A3G peptide, dose response retest, primary screen (AID 1117319); TR-FRET GST-Vif / biotin-A3G peptide binding; higher % means a stronger effect; test concentration not given here; strong numbers were not always called active; inhibition, %; hits with a dose series show IC50 in µM; 260,000 compounds, 0.57% hits;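 active = above the screen mean plus three standard deviations and confirmed in dose response; inconclusive = results disagree or hit not tested in dose response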;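 note: Vif residues 1-94 fused to GST binding biotinylated APOBEC3G peptide 110-148; 0% = full assay without inhibitor and 100% = GST in place of GST-Vif; retest series ran down from 100 µM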
LANA-H2A inh: blocks KSHV LANA binding to histone H2A/H2B; Q9QR71; cell-free LANA-H2A/H2B peptide, fluorescence polarization; inhibition, % (test concentration not listed); 320,000 compounds, 0.6% hits; AID 2629; in the data active = inhibition mostly above about 10%, no sharp cut-off; inactive = mostly below about 6.7%;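 note: stock transfer was 7.5 nL into about 10 µL; 0% = median of vehicle wells and 100% = median of positive control wells; one replicate is shown; the record names a cut of 25% in any replicate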
MLL AF4-AF9 inh: blocks AF4 peptide binding to human AF9 | P42568 | 350,000 compounds, 0.47% hits | AID 651704 | AlphaScreen, biotin-AF4 peptide binding to FLAG-AF9 | inhibition, % at 10 µM;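 active = every replicate reaching a set inhibition limit, whatever the replicate mean, cut at about 25% in these data; inconclusive = mean inhibition reaches that limit but some replicates miss it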;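 note: 0% = plate neutral control median and 100% = total signal loss; the record names both 10 and 1 µM as test concentration; the first replicate is given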
Target sequence (P42568 whole entry, looked up): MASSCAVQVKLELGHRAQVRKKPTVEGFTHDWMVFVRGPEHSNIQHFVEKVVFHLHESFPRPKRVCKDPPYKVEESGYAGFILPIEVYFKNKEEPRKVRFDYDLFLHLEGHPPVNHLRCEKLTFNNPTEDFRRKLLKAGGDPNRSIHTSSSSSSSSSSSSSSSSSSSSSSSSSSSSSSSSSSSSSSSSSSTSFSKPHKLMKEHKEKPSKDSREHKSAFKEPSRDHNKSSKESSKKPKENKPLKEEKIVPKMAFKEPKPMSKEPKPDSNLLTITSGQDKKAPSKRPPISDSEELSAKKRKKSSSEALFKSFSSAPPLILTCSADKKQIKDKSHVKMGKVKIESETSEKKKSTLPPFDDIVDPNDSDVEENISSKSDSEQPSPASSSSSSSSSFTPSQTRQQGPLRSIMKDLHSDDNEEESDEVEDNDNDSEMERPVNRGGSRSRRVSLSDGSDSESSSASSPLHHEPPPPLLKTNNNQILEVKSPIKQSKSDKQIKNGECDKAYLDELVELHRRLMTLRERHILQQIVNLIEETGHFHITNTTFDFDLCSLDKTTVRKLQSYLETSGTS
Beta apoptosis: beta cell apoptosis inhibition; INS-1E cytokine-induced death, ATP luminescence, 48 h; percent of positive-control rescue, neutral wells zero; protection from apoptosis, % (concentration not given with the values); 300,000 compounds, 0.8% hits; AID 435005;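 active = all replicates at 75% or more, or half of them and the mean; inconclusive = half reach 75% but not the mean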;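 note: 0% = cytokine-treated negative control wells and 100% = positive control rescue; higher means more ATP so stronger rescue from cytokine killing; wells of about 40 µL received 100 nL stock; the first replicate is given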
* marks the source's active call; other numbers are inactive results; ? = inconclusive; . = not tested or not shown; & = joins results of further samples.

structure | MLL AF4-AF9 inh | T cruzi inh | Bfl-1 A1 inh | Beta apoptosis | LANA-H2A inh | Calb FLC | RanGTP-Impb inh | Vif A3G
O=C(CN1CCN(S(=O)(=O)c2ccc(Br)cc2)CC1)Nc1ccc(F)cc1 | . | -4 | -0.2 | -6 | -3.3 | -5 | -1.8 | -5%&8%
Cc1ccccc1NC(=O)CSc1nc(N2CCCCC2)nc(N2CCCCC2)n1 | . | 28 | -0.5 | -2 | -1.0 | -8 | 1.0 | 2%
CCOc1ccc(CCNC(=O)COC(=O)c2cc(OC)c(OC)c(OC)c2)cc1OCC | -0.6 | -1 | -0.8 | 4 | -7.8 | 27 | 1.9 | 21%
Cc1cc(=O)nc2c3ccccc3n(CC(=O)NCCC3=CCCCC3)n12 | -8.7 | 12 | -0.1 | -4 | -0.3 | -4 | -1.7 | .
CCn1c(NC(=O)c2cccs2)nc2ccccc21 | . | -24 | 0.8 | 6 | 0.1 | 78* | ? | -10%
CCCN(CCC)CCNC(=O)C1c2ccccc2C(=O)N2CCc3ccccc3C12 (stereo not given) | -1.4 | -15 | 0.2 | -6 | 0.9 | 0 | 1.7 | 33%
CCc1nc(-c2ccc(OC)c(OC)c2)cc2cc(OC)c(OC)cc12 | 12 | 22 | -1.0 | 6 | -3.3 | -1 | -0.6 | -18%
COc1cc2c(cc1OC)C(c1cc3cc4c(cc3[nH]c1=O)OCO4)N(C(=O)C(C)C)CC2 (stereo not given) | -12 | 18 | 0.0 | . | 3.2 | 3 | -2.7 | 9%
N#Cc1c(NC(=O)c2ccccc2)sc2c1CCC2 | . | -12 | -3.7 | 15 | 3.0 | 0 | 12 | -6%
CCC(C)[C@H](N)c1nnc(SCc2cccc(F)c2)o1 (stereo not given in full) | 3.9 | 7 | 0.0 | -3 | 3.3 | 4 | ? | 2%
COc1cc(NC(=O)c2cc3sccc3n2C)cc(OC)c1 | . | 9 | -3.5 | -3 | 3.3 | -1 | 1.9 | 2%
O=C(Nc1ccccc1OC(F)F)c1ccc(-n2cncn2)c([N+](=O)[O-])c1 | -7.3 | -10 | -0.3 | -1 | 4.6 | -2 | -0.4 | -3%
Cc1oc2c(C)c(O)ccc2c(=O)c1-c1ccc2ccccc2n1 | . | 1 | 2.0 | -1 | -5.7 | -2 | 2.0 | -6%
N#CCc1ccc(OC(=O)c2ccncc2)cc1 | -0.8 | -24 | 0.3 | -2 | 12 | -13 | ? | .
CCC(c1nnc(SCC(=O)Nc2cc(S(C)(=O)=O)ccc2Cl)n1Cc1ccccc1)N(C)C (stereo not given) | 13 | 7 | -0.4 | 3 | 0.1 | -5 | -3.7 | .
Cc1ccc(F)c([C@H]2[C@@H]3C=CCC[C@@]3(C)C(=O)N2Cc2ccccc2)c1 | -1.5 | 20 | 0.7 | -7 | -4.9 | -11 | 2.7 | -1%
CN1C(=O)C(CC(=O)NCCc2ccccc2)N(NC(=O)c2cccc(F)c2)C1=S (stereo not given) | 2.0 | -5 | 0.3 | 2 | 1.1 | -11 | 0.1 | .
COc1ccccc1CNC(=O)CSc1nc2nc(C)cc(C)n2n1 | . | -10 | 1.0 | -9 | 50* | -10 | -5.3 | -2%
CCn1nnnc1SCCSc1nnnn1CC | . | -12 | 0.4 | -3 | 5.3 | -4 | 2.2 | -1%
Cc1nn(Cc2ccccc2)c(C)c1NC(=O)Cn1nc([N+](=O)[O-])c(Cl)c1C | . | 17 | -0.5 | -8 | -4.0 | -14 | 5.2 | 74%
CCc1nc2cc(Cl)c(Cl)cc2nc1CC | . | -33 | 1.9 | -1 | -3.9 | 1 | 1.3 | -11%
CC(OC(=O)c1cccs1)C(=O)NCc1cccs1 (stereo not given) | . | 11 | 0.4 | . | -2.4 | 2 | -2.0 | 30%
CCCCOC(=O)Nc1nnc(Cc2ccc(Cl)cc2)s1 | -8.4 | 19 | 0.1 | -3 | -4.7 | 10 | -1.9 | -4%
CCCCNc1ccc(C(CC(N)=O)NC(=O)c2cc(C)cc(C)c2)cc1[N+](=O)[O-] (stereo not given) | 0.0 | -24 | 0.5 | 2 | -2.0 | -2 | -0.2 | .
CCCCCN(C(=O)CCC(=O)OCC(=O)N(C)Cc1ccccc1C)c1c(N)n(CCCC)c(=O)[nH]c1=O | -5.5 | 0 | -0.3 | -4 | 0.4 | -4 | ? | -2%
O=C(Cc1ccc(F)cc1)NCCS(=O)(=O)N1CCN(c2ccccc2)CC1 | -16 | 1 | 0.1 | 7 | -1.2 | 5 | -4.0 | 6%
COC(=O)/C=C1\NCCNC1=O | -2.2 | -1 | 2.4 | -10 | 0.0 | 1 | 1.2 | .
CN(C)CCSc1nc(N)c2c3c(sc2n1)COC(C)(C)C3 | 4.7 | 52 | 0.5 | 1 | -4.3 | 18 | 7.8 | 15%
Cc1ccc(S(=O)(=O)N2CCC(C(=O)Nc3ccccc3N3CCCC3)CC2)c(C)c1 | -0.3 | 12 | 0.5 | . | -2.5 | 4 | 7.7 | 2%
CC(C)C(c1nnnn1Cc1ccccc1)N1CCC(C(N)=O)CC1 (stereo not given) | . | 2 | 0.7 | 0 | 0.4 | -10 | 3.3 | -1%
CCOC(=O)N1CCC(NC(=O)c2oc3c(C)c(C)ccc3c2C)CC1 | -4.5 | 5 | 2.3 | -2 | -6.7 | 39 | -1.2 | .
O=C(NCCN1CCCC1)c1ccc2c(c1)N(Cc1ccccc1)C(=O)c1ccccc1S2(=O)=O | 6.6 | 12 | . | . | . | 1 | 0.6 | .
COc1ccc(N2CCN(C(=O)COC(=O)Cc3ccc(F)cc3)CC2)cc1 | 0.6 | -12 | 0.0 | . | 1.7 | 0 | 4.6 | -3%
COc1ccc(S(=O)(=O)n2ccnc2C)c(C)c1C | -3.7 | -14 | 1.0 | 2 | 4.2 | 3 | 0.1 | .
COc1ccc(C2c3[nH]c4ccccc4c3CCN2C(=O)c2ccc(=O)n(C)n2)c(F)c1 (stereo not given) | -5.2 | 8 | 0.6 | 11 | -7.1 | 65 | ? | .
O=C(CCCSc1nc2ccccc2[nH]1)Nc1nnc(C2CC2)s1 | -0.6 | 6 | 0.3 | -7 | -0.8 | -3 | 4.2 | 5%
Cc1cc(C(C)(C)C)oc1C(=O)N1CCN(C(=O)c2oc(C(C)(C)C)cc2C)CC1 | . | -5 | . | . | . | 3 | 4.4 | 27%
Cc1cc(Nc2ccccc2N2CCOCC2)n2ncnc2n1 | . | -23 | -0.2 | 2 | -0.2 | -10 | -5.4 | 9%&5%
Cc1ccc2c(CC(=O)OC(C)C(=O)NCc3ccc4c(c3)OCO4)coc2c1 (stereo not given) | . | -5 | 0.0 | -2 | -2.5 | -32 | -1.8 | 13%
O=C(Nc1nnc(S(=O)(=O)N2CCCCCC2)s1)c1ccc(Cl)cc1 | 1.3 | -19 | 0.0 | 11 | 1.5 | 23 | -4.1 | .
N=c1n(CCCOc2ccccc2Cl)c2ccccc2n1CC(N)=O | -62 | -16 | 0.3 | 5 | 2.2 | -3 | 4.4 | 3%
CN1CCN(c2nc3c(c(=O)[nH]c(=O)n3C)n2CCCSc2ncccn2)CC1 | . | -6 | -0.4 | -6 | 1.3 | -11 | -2.0 | -6%
CCOC(=O)C(=O)NC(C)c1ccccc1 (stereo not given) | -0.1 | -7 | -0.8 | -3 | -6.4 | -6 | -5.5 | 1%
O=[N+]([O-])c1ccc(CN2CCN(Cc3c[nH]c4ccccc34)CC2)cc1 | 12 | 56* | -0.4 | 3 | 0.5 | -21 | . | .
C[C@H](NC(=O)c1[nH]cnc1C(=O)N[C@H](C)c1ccccc1)c1ccccc1 | -0.7 | . | 0.9 | -2 | 2.5 | . | . | .
Cc1cc(C)c2nc(-c3ccccn3)cc(C(=O)Nn3cnnc3)c2c1 | 1.5 | -7 | 0.2 | 0 | -0.4 | 0 | ? | 0%
CN(c1ccc(OCC(=O)Nc2cc(Cl)ccc2C(=O)O)cc1)S(=O)(=O)c1ccc(F)cc1 | 0.2 | . | 0.3 | 2 | -3.9 | . | . | .
COc1ccc(-c2cc(C#N)nc(NN)n2)cc1 | -1.5 | 9 | -0.4 | -2 | 1.5 | -21 | -1.1 | .
CC(C)Oc1ccc(C(=O)OC(C)C(=O)Nc2nc(-c3cccc([N+](=O)[O-])c3)cs2)cc1 (stereo not given) | 2.8 | -16 | -0.1 | 3 | -2.7 | 6 | 0.9 | .
COc1cc(C(=O)ONC(=O)c2ccc(OC(F)F)cc2)cc(OC)c1OC | 0.8 | 2 | -1.3 | . | 5.7 | 2 | 2.5 | 24%
COc1ccc2[nH]cc(CCNC(=O)Nc3ccccc3C)c2c1 | -2.6 | -12 | -0.5 | 0 | 1.8 | 5 | -3.9 | -9%
COc1ccccc1N1CCN(C(=O)CSc2nnc(NC(=O)C(C)C)s2)CC1 | 1.7 | -2 | -0.1 | -8 | -4.6 | 8 | 1.8 | -13%
CCc1ccc(N(CC(=O)N2CCOCC2)S(C)(=O)=O)cc1 | 1.2 | -2 | 1.5 | -4 | -0.1 | 1 | 3.5 | 19%
COc1cc(Cl)c(C)cc1NC(=O)CN(C)Cc1cccc(OC)c1OC | -1.4 | 34 | 0.0 | -1 | -2.9 | -3 | -3.6 | 17%
CCCn1c(SCCC(=O)O)nc2ccccc21 | 0.3 | -30 | 0.2 | -2 | -0.2 | 4 | 4.6 | ?
O=C(NCC1CCCO1)c1ccc(Cn2c(=S)[nH]c3ccccc3c2=O)cc1 (stereo not given) | -4.3 | 2 | -0.8 | 4 | -11 | -10 | -1.8 | -4%
CCOCCCn1c(=O)c2ccccc2n2c(=S)[nH]nc12 | -11 | -4 | 1.3 | 1 | 2.7 | 2 | ? | .
Cc1onc(-c2c(F)cccc2Cl)c1C(=O)N1CCCCC1 | -0.8 | 0 | 0.5 | -1 | 2.3 | 1 | -2.0 | -2%
COc1ccc(Cn2c(=O)[nH]c3cc(C(=O)NC4CCCC4)ccc3c2=O)cc1 | -2.0 | -11 | 0.1 | 5 | 8.1 | -11 | 0.8 | .
Cc1cccc(Oc2coc3cc(O)ccc3c2=O)c1 | -20 | -20 | -0.4 | -6 | 3.9 | 5 | 0.5 | -13%

(further entries)
structure | MLL AF4-AF9 inh | T cruzi inh | Bfl-1 A1 inh | Beta apoptosis | LANA-H2A inh | Calb FLC | RanGTP-Impb inh | Vif A3G
CCCCn1c(=O)n(CC(=O)Nc2ccc(C)c(Cl)c2)c(=O)c2c1ncn2Cc1ccco1 | . | 32 | 0.2 | -9 | 0.4 | -10 | -2.7 | 12%&-3%
CCCCN1C(=O)Nc2ccccc2S1(=O)=O | -5.9 | -9 | 0.0 | 2 | 2.5 | 0 | -3.1 | 2%
CCOc1ccc(S(=O)(=O)N(C)c2ccc(OCC(=O)NCc3cccnc3)cc2)cc1 | 0.0 | 2 | -0.4 | -2 | 0.4 | 0 | 0.9 | ?
CCOC(=O)c1c(C)n(CC)c2c1cc(O)c1ccccc12 | -1.3 | 5 | 0.4 | -2 | 0.4 | -3 | 1.6 | -3%
N#Cc1ccccc1OCC(=O)OCC(=O)Nc1ccc2c(c1)OCO2 | 2.4 | . | -0.6 | -1 | -1.7 | . | . | 2%

Rows are unselected, and some 4.3% of all compounds hit somewhere here.
